NPYLR7 ag = activates Aedes aegypti NPYLR7 receptor | HEK293T NPYLR7/Galpha15, GCaMP6s calcium fluorescence | activation, % at 10 µM | 270,000 tested, 0.15% active | AID 1259423; in the data active means activation above about 40%;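 further: 0% = vehicle and 100% = reference agonist at the receptor; some compounds past the cut are filed as inactive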
NPYLR7 ag max-min = recorded beside NPYLR7 ag, whose call it bears; activation, %; measured here: Max-Min RFU normalised activation; some inactives read as strong as hits;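 span of the calcium signal over five minutes; 0% = vehicle and 100% = native peptide agonist; compound fluorescence can raise it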
* hit, by the source's call; & = joins results of further samples. This is a subset, so the mix of outcomes need not match the whole.

Values run as follows: NPYLR7 ag	NPYLR7 ag max-min
> COc1cccc(NC(=O)C(=O)c2ccc(C3CCCCC3)cc2)c1
  -5	-10
> COC(=O)CCC(=O)N1CCN(c2nc3nccc(C(C)(C)C)n3n2)CC1
  5	3
> Cc1nn(-c2ccccc2)c(C)c1CNS(=O)(=O)c1c(Cl)cccc1Cl
  -1	-3
> CN(Cc1cc2cc(F)ccc2[nH]1)C(=O)C1CNCCO1 (stereo not drawn)
  4	5
> CCN(Cc1ccc(N(C)C)cc1)C(=O)Nc1cc(C)on1
  11	9
> CC(C)NC(=O)C1CCN(C2CCN(Cc3cnn(C(C)C)c3)CC2)CC1
  -2&9	-5&2
> CCCCOCCCNC(=O)c1c(C)noc1-c1ccccc1OC
  5	2
> Cc1[nH]n(-c2ccc(Cl)cc2)c(=O)c1C1=C(N(C)C2CCCCC2)C(=O)N(Cc2ccco2)C1=O
  -12	0
> COc1ccc(/C=C2\NC(=S)N(c3ccccc3)C2=O)cc1OC
  -6	-4
> CCCn1nccc1C(=O)N1CCNCC1C(=O)NCc1ccncc1 (stereo not drawn)
  2	-1
> COc1ccc(-c2cnc3c(Nc4cccc(OC(F)(F)C(F)F)c4)nccn23)cc1OC
  -3	-11
> CC(=O)N1CCC2(CC1)OCc1cc(-c3ccc(CO)cc3)ccc1O2
  -5	-11
> NC(=O)c1cccc(Nc2nc(C(N)COCc3ccccc3)cs2)n1 (stereo not drawn)
  12	10
> CC(NC(=O)Nc1ccc(F)cc1F)c1nnc(SCc2ccc(F)cc2)n1-c1ccc([N+](=O)[O-])cc1 (stereo not drawn)
  -11	-2
> CC1(C)O[C@@H]2C[C@@](OCc3ccc(F)cc3)(C(=O)NC3CC3)CC(OCc3ccc(C#N)cc3)[C@@H]2O1 (stereo partly drawn)
  29	26
> CC1CCC(O)(CSc2nnc(-c3ccncc3)n2C2CC2)CC1 (stereo not drawn)
  -4	-3
> Cc1nn(C)c(Cl)c1CN1CCC2(CC1)Nc1ccccc1C(=O)N2C1CCCC1
  -1	10
> Cc1cc(C)n2nc(SCc3cn4cccc(C)c4n3)nc2n1
  -4	-4
> O=S(=O)(Nc1ccc2ccccc2c1)c1ccc(F)c(F)c1F
  7	5
> COc1ccc(CC(=O)N(CC(=O)N2CCc3sccc3C2c2ccc(Cl)cc2Cl)Cc2ccco2)cc1 (stereo not drawn)
  2	-4

Single values from above.
CC1CCC(O)(CSc2nnc(-c3ccncc3)n2C2CC2)CC1 (stereo not drawn) | NPYLR7 ag max-min: -3
COc1ccc(/C=C2\NC(=S)N(c3ccccc3)C2=O)cc1OC | NPYLR7 ag max-min: -4

2 of these compounds, reformatted.
COc1ccc(/C=C2\NC(=S)N(c3ccccc3)C2=O)cc1OC
  NPYLR7 ag: -6
  NPYLR7 ag max-min: -4
CCCn1nccc1C(=O)N1CCNCC1C(=O)NCc1ccncc1 (stereo not drawn)
  NPYLR7 ag: 2
  NPYLR7 ag max-min: -1

Next section
Values run as follows: NPYLR7 ag	NPYLR7 ag max-min
> CCOCCCC(=O)N1CCC(C(O)c2ccc(F)cc2)CC1 (stereo not drawn)
  6	4
> CCNC(=S)N(Cc1c(-c2ccccc2F)noc1N1CCOCC1)CC1CCCO1 (stereo not drawn)
  -3	3
> O=C(Cn1nnc(-c2ccccc2)n1)Nc1c(F)cccc1F
  7	8
> Oc1ccc(O)c(CN2CCCn3cccc3C2c2cccc(F)c2F)c1 (stereo not drawn)
  3	11
> CC(Sc1nnc(COc2ccc(Cl)cc2)n1C)C(N)=O (stereo not drawn)
  -1	-3
> O=C(NC1CCS(=O)(=O)C1)c1ccccc1-c1ccc(Cn2cccn2)cc1 (stereo not drawn)
  5	4
> Cc1cccn2c(=O)nc(SCc3ccc(Cl)cc3Cl)nc12
  7	5
> COc1cccc(Cn2cccc2CN(Cc2cccc(F)c2)CC(C)C)c1
  0	1
> CCn1nc(C(=O)N2CCN(c3ccccc3)CC2)c2c1CCN(C(=O)c1csc(SC)n1)C2
  17	5
> CS(=O)(=O)CC(=O)N(Cc1ccccc1)CC1CCC1
  15	7
> CC(C)C1=Nc2nnnn2C(c2ccc(Br)cc2)C1C (stereo not drawn)
  -7&-3&4	-9&-4&0
> CCCc1c(C)nn(-c2ccc(C(=O)NC3CCN(Cc4ccccc4)C3)cc2)c1C (stereo not drawn)
  -7	-12
> Cc1nc2sccn2c1CN1CCCC(C(=O)Nc2ccc(-c3ccco3)cc2)C1 (stereo not drawn)
  5	0
> Cc1cc(C)cc(N=C2NC(=O)/C(=C/c3ccccc3C)S2)c1
  -7	-12
> CNS(=O)(=O)c1cc(C(=O)NC2CC2C2CCCCC2)c(C)o1 (stereo not drawn)
  -1	-12
> COC(=O)c1cc(C(C)C)nc2c1c(-c1ccc(F)cc1)nn2C1CCS(=O)(=O)C1 (stereo not drawn)
  11	5
> Brc1ccc(Nc2nc3ccccc3n3cnnc23)nc1
  2	1
> NCc1ccsc1-c1ccccc1
  9	12
> COc1cccc2c1nc(N)n[n+]2[O-]
  14	11
> O=C(CSc1nnc(-c2ccccc2)n1-c1ccccc1)N/N=C\c1cccc(Cl)c1
  -4	-10
> Cc1cccc(N2CC(NC(=O)c3cnc(C4CC4)[nH]c3=O)CC2=O)c1 (stereo not drawn)
  3	4
> FC(F)(Cl)C(F)(F)Cl
  2	2
> O=C1OC(c2ccccc2Br)=NC1=Cc1ccco1
  2	9
> Cc1cnn(CC2CCCN2CCn2cncn2)c1 (stereo not drawn)
  2	-3
> COCCNC(=O)c1coc(CN(Cc2cccc(C(F)(F)F)c2)Cc2sccc2C)n1
  -8	21
> CCOC(=O)c1ccc2c(c1)nc(SCc1cc(F)ccc1C)n2CCc1ccc(OC)cc1
  3	-1
> COC(=O)[C@H](Cc1ccc(OC)cc1)NC(=O)[C@@H]1CN(S(C)(=O)=O)CCN1C(C)=O
  14	8
> O=S(=O)(Nc1ccc(-c2ccc3nnc(-c4ccccn4)n3n2)cc1)c1ccccc1
  -17	-16
> CCCCCCn1c(N2CCCC2)nc2c1c(=O)[nH]c(=O)n2C
  -15	-15
> O=C(Nc1ccc(F)cc1)c1csc(COc2cccc(C(F)(F)F)c2)n1
  4	12
> Fc1ccc(Nc2nc3nonc3nc2Nc2ccc(F)cc2)cc1
  8	1
> O=c1c2c3c(sc2nc2c4ccccc4c(N4CCOCC4)nn12)CCC3
  19	12
> Cc1[nH]n(-c2nc(-c3cccc([N+](=O)[O-])c3)cs2)c(=O)c1N=Nc1ccccc1Br
  -6	-8
> CCCc1c(C(=O)Nc2cc(-c3onc4c3CCc3cc(OC)ccc3-4)ccc2C)cnn1-c1ccccc1
  5	2
> Cc1ccc2c(c1)NC(c1ccccc1)C1C(=O)CC(C)(C)CC1=N2 (stereo not drawn)
  3	-2
> COc1ncccc1-c1cc(C(C)=O)ccc1N1CCOCC1
  17	9
> CC(C)(C)C(=O)NC(Cc1ccccc1)C(=O)Nc1nnc(-c2ccc(F)cc2)s1 (stereo not drawn)
  30	27
> CCOC(=O)CSc1nc2c(-c3ccccc3)c[nH]c2c(=O)n1Cc1ccc(OC)cc1
  -1	-5
> COCCN(Cc1ccc(C)cc1)CC(O)COc1ccc(OC)cc1 (stereo not drawn)
  3	12
> O=C(c1ccco1)c1conc1C(=O)c1ccc(Br)cc1
  4	2

(continued)
molecule | NPYLR7 ag | NPYLR7 ag max-min
Cc1ccc2nc(-c3ccccc3)c(NC(C)(C)CC(C)(C)C)n2c1 | 3 | 9
CC(C)CN(Cc1ccsc1)C(=O)c1ccc2c(c1)ncn2CCO | 5 | -3
Cc1ccc2occ(/C=N\NC(=O)CCC(=O)Nc3cccc(C(=O)O)c3)c(=O)c2c1 | -4 | -5
CC1(Cc2ccc(C(F)(F)F)o2)C(=O)Nc2cc(-c3ccccc3Cl)ccc21 (stereo not drawn) | 3 | 1
CCOC(=O)CSc1nnc(N2CCN(c3ccccc3OC)CC2)s1 | -7 | -1
CCCCN(C)Cn1[nH]c(=O)ccc1=O | 1 | 3
O=S(=O)(N1CCN(c2ccccc2)CC1)C(F)(F)C(F)(F)C(F)(F)C(F)(F)F | 13 | 7
COc1cccc(C(=O)Nc2nnc(SCC3CC3)s2)c1 | -4 | 6
Cc1cc2nc(N(Cc3ccccn3)C(=O)Cc3ccc(S(C)(=O)=O)cc3)sc2cc1C | 25 | 24
C=CCNC(=O)CC1C(=O)NCCN1Cc1c(F)cccc1Cl (stereo not drawn) | 11 | -3
CCOC(=O)N1CCN(C(=O)c2cc(-c3ccc(OC)cc3)nn2-c2ccc([N+](=O)[O-])cc2)CC1 | 15 | 16
Cc1cccc(-c2ccc(C(=O)NC3CCN(C)C3)c(=O)[nH]2)c1 (stereo not drawn) | 1 | 12
CN1CCc2c(c3cc(Br)ccc3n2CC(=O)Nc2ccc3[nH]ncc3c2)C1 | 1 | 3
Cc1nn(-c2ccccc2)c2nc(Cc3ccccc3)nc(N3CCN(C(=O)c4cccc(C(F)(F)F)c4)CC3)c12 | 0 | 5
CCc1ccc(OCC(=O)N2[C@@H]3CC[C@H]2CNC(=O)C3)cc1 | 3 | 3
COCCN(Cc1c(-c2ccccc2)noc1N1CCCCC1)C(=O)c1ccc(Cl)cc1 | 17 | 20
Nc1nccc(Oc2ccc(NC(=O)c3c[nH]cc(-c4ccc(F)cc4)c3=O)cc2F)c1Cl | -6 | -13
Cc1ccccc1OCCC(=O)NNC(=O)CC12CC3CC(CC(C3)C1)C2 | 17 | 15
Cc1nc(SCC(=O)c2ccc3c(c2)OCCO3)c2c3c(sc2n1)CCCC3 | -3 | -4
Cn1cc(CN2CCC(C(O)c3nccn3C)CC2)c(-c2ccc3c(c2)OCCO3)n1 (stereo not drawn) | 21 | 11
CCN1CCN(c2cc(-c3ccccc3)nc(SCc3ccc(C(=O)O)cc3)n2)CC1 | 9 | 6
CCNC(=O)N1[C@@H](c2ccccc2)[C@@H](C(=O)NC)C[C@]12CCCCN(CCO)C2=O | 4 | 14
CCCc1c(C(=O)N2CCOCC2)nnn1-c1ccc(OC)cc1 | 4 | 2
CSc1cc2c(cc1NCc1cnc(C)s1)OCCO2 | 5 | 4
Cc1ccc(C2CC(c3cccs3)=NN2C(=O)CCC(=O)O)o1 (stereo not drawn) | -6 | -5
Cc1sc(NC2CCCC2)nc1-c1ccc(F)c(F)c1 | 5 | 1
CC1=NN(CCC(C)C)c2nc3c(c(=O)n(CCC(C)C)c(=O)n3C)n2C1 | -7 | -9
CC(C)Oc1nc(-c2cccc(F)c2)n(-c2ccc(NC(=O)Cc3ccccc3)cc2)n1 | 21 | 26
CC(=O)N1N=C(c2ccccc2Cl)OC1C(=O)NN1CCCC1 (stereo not drawn) | 9 | 3
Cc1nc2sccn2c1-c1nc(-c2ccc(Cl)cc2Cl)cs1 | -1 | -4
COc1cc(C)c(S(=O)(=O)NC(C)C#N)cc1OC (stereo not drawn) | 9 | 4
CC(=O)Nc1cccc(NC(=O)c2cn(-c3ccccc3)nc2-c2cccnc2)c1 | 13 | 15
O=C(Cn1ccn2nc(-c3ccccc3)cc2c1=O)NCc1ccc(Cl)cc1 | 6 | 5
CSc1nc2c([nH]c3ccccc32)c(=O)n1C | 0 | 13
Cc1ccc(-n2cc(C(=O)O)c(=O)cc2C)c(C)c1 | -1 | -4
NC(=O)c1cc2nc(-c3ccc(F)cc3)cc(C(F)(F)F)n2n1 | -9 | -14
COc1cccc(C2=N/C(=C\C=C\c3ccccc3OC)C(=O)O2)c1 | 0 | -4
CC(C)C(=O)N(Cc1nccn1Cc1c(F)cccc1Cl)C1CC1 | 6 | 13
CN(C)NC1CCS(=O)(=O)C1 (stereo not drawn) | 7 | 4
FC(F)(F)c1ccccc1-n1c(-c2nccc3ccccc23)n[nH]c1=S | -6 | -14
CNc1nnc(SCCOc2ccccc2)s1 | -6 | -6
C=CCNc1nc(C2(C)CC3(CC(COCCCCC)OC3=O)C(=O)O2)cs1 (stereo not drawn) | 4 | 3
CCOc1ccc(-n2nnnc2CN2CCN(C(=O)c3cc(C)on3)CC2)cc1 | -2 | -3
CCc1ccc(C2COCCN2c2ncnc3[nH]ncc23)o1 (stereo not drawn) | 11 | 7
O=C1Nc2ccccc2C1=Nc1ccc(Br)cc1 | 3 | 2
CC(C)C(=O)NC1CCN(c2ccccc2C(=O)N2CCCC2)CC1 | -5 | 0
CCOC(=O)C(C#N)C1(c2ccc(F)cc2)CCOC(C)(CC)C1 (stereo not drawn) | 1 | 0
CN(C)c1cnccn1 | -6 | -4
CC(=O)NC(C(=O)Nc1cnc2ccccc2c1)C1CCCC1 (stereo not drawn) | 12 | 10
CN1CCN(c2cc(-c3ccc(F)c(Cl)c3)nc3ccnn23)CC1 | 14 | 0
CCCC(=O)OCC(O)CN(Cc1cccc(C)c1)Cc1ccco1 (stereo not drawn) | -1 | 12
Cc1ccc(Cl)c(Oc2cc(N3CCN(C(=O)c4ccc(C(F)(F)F)cc4)C(C)C3)ncn2)c1 (stereo not drawn) | -8 | 6

Grouped by structure, the entries above containing a thiophene ring, fused or not.
molecule | NPYLR7 ag | NPYLR7 ag max-min
COc1ccc(CC(=O)N(CC(=O)N2CCc3sccc3C2c2ccc(Cl)cc2Cl)Cc2ccco2)cc1 (stereo not drawn) | 2 | -4
NCc1ccsc1-c1ccccc1 | 9 | 12
COCCNC(=O)c1coc(CN(Cc2cccc(C(F)(F)F)c2)Cc2sccc2C)n1 | -8 | 21
O=c1c2c3c(sc2nc2c4ccccc4c(N4CCOCC4)nn12)CCC3 | 19 | 12
CC(C)CN(Cc1ccsc1)C(=O)c1ccc2c(c1)ncn2CCO | 5 | -3
Cc1nc(SCC(=O)c2ccc3c(c2)OCCO3)c2c3c(sc2n1)CCCC3 | -3 | -4
Cc1ccc(C2CC(c3cccs3)=NN2C(=O)CCC(=O)O)o1 (stereo not drawn) | -6 | -5
